High-throughput results: PubChem, Vanderbilt University
GIRK2 act: activators of human GIRK2 potassium channels; G protein-activated inward rectifier potassium channel 2 (Homo sapiens), P48051; AID 1259325, 2017; 63,000 tested, 0.05% active; calls only for hits at 25 µM; HEK293-GIRK2 thallium flux, Thallos fluorescence;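 active = among the strongest 0.2% of first-round signals and kept after retests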;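 also: first round at about 10 µM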
Target sequence (P48051 whole entry, looked up): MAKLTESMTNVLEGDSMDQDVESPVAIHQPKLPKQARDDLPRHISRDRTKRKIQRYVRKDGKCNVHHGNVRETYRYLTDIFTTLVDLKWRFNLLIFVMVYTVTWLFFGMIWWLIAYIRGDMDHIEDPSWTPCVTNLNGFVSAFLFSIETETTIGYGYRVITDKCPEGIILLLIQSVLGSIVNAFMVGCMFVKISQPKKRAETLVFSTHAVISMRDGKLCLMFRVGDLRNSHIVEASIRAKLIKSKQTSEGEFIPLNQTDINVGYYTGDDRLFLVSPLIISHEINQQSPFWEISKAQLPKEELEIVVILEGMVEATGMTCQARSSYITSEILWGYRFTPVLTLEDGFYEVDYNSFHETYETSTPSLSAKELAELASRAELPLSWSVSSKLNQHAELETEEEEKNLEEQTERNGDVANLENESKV
Calls only; i = inactive; + = active, no number. Not all compounds are listed. The share of hits here may be higher or lower than overall.

SMILES | GIRK2 act
Cc1ccc(C(C)C)c(OCC(O)CNCC2CCCO2)c1 (configuration not stated) | i
O=c1ccn(-c2ccccc2)nc1-c1nc(-c2cccc(Br)c2)no1 | i
Cc1csc(CN2CCN(C(=O)c3c(F)cccc3Cl)CC2)n1 | i
COc1ccccc1OCC#CCNC(=O)c1ccc2nsnc2c1 | i
O=C(NCc1ccccc1OC(F)(F)F)C1CCN(c2ccc(-c3ccco3)nn2)CC1 | i
O=c1ccn(-c2ccccc2)nc1-c1nc(-c2ccc3c(c2)OCO3)no1 | i
Cc1cc(C)c(S(=O)(=O)NCC2CCN(C(=O)c3ccoc3)CC2)cc1C | i
OC(CCN1CCCCC1)(c1ccccc1)C1CCCCC1 (configuration not stated) | i
CCOc1ccccc1NC(=O)CSC1=Nc2ccccc2NC(CC(=O)OC)=C1 | i
O=C(CN1CCN(c2ccc(F)cc2)C1=O)Nc1ccc(F)c(Cl)c1 | i
C/C=C/C(=O)Nc1ccc(-n2nnn(CC(=O)NC3CC3)c2=O)cc1 | i
CC1C(OCC(O)CSc2ccccn2)C2CCC1C2(C)C (configuration not stated) | i
COc1cc(/C=C/c2ccc(O)cc2)cc(OC)c1 | i
COc1ccc(-c2nnc(SCC(=O)Nc3ccc(C)cc3)n2N)cc1OC | i
Cc1cn2c3c(=O)n(CC(N)=O)c(=O)n(C)c3nc2n1-c1ccc(Br)cc1 | i
COc1ccc(S(=O)(=O)NCCn2nc(-c3ccc(F)cc3)ccc2=O)cc1C | i
O=C(CSc1nccn2nc(-c3ccc(Cl)cc3)cc12)Nc1ccc2c(c1)OCCO2 | i
Cc1nnsc1C(=O)NCC(C)(O)c1cccs1 (configuration not stated) | i
O=C(Cc1ccc(Cl)cc1)Nc1ccc(S(=O)(=O)N2CCN(c3cnccn3)CC2)cc1 | i
COc1ccc(Cl)cc1C(=O)Nc1cc(N2CCN(c3ccccc3)CC2)ncn1 | i
CC(C)=CCOc1ccc2c(=O)c(-c3ccccc3)c(C)oc2c1 | i
O=C(Nc1ccc2c(c1)OCCO2)c1nnn(-c2ccccc2Cl)c1-c1ccccn1 | +
COc1ccccc1CN1CCc2nc(SCc3nc(-c4cccc(C)c4)oc3C)[nH]c(=O)c2C1 | i
CC(C)CCNC(=O)CSc1nccn2nc(-c3ccc(Cl)cc3)cc12 | i
CC(=O)c1ccc(NC(=O)CN2CCN(Cc3nc(-c4ccccc4)cs3)CC2)cc1 | i

An excerpt from above in order of molar mass, lowest first.
SMILES | GIRK2 act
Cc1nnsc1C(=O)NCC(C)(O)c1cccs1 (configuration not stated) | i
Cc1ccc(C(C)C)c(OCC(O)CNCC2CCCO2)c1 (configuration not stated) | i
CC(C)=CCOc1ccc2c(=O)c(-c3ccccc3)c(C)oc2c1 | i
C/C=C/C(=O)Nc1ccc(-n2nnn(CC(=O)NC3CC3)c2=O)cc1 | i
Cc1csc(CN2CCN(C(=O)c3c(F)cccc3Cl)CC2)n1 | i
CC(C)CCNC(=O)CSc1nccn2nc(-c3ccc(Cl)cc3)cc12 | i
Cc1cc(C)c(S(=O)(=O)NCC2CCN(C(=O)c3ccoc3)CC2)cc1C | i
O=c1ccn(-c2ccccc2)nc1-c1nc(-c2cccc(Br)c2)no1 | i
COc1ccc(-c2nnc(SCC(=O)Nc3ccc(C)cc3)n2N)cc1OC | i
COc1ccc(S(=O)(=O)NCCn2nc(-c3ccc(F)cc3)ccc2=O)cc1C | i
COc1ccc(Cl)cc1C(=O)Nc1cc(N2CCN(c3ccccc3)CC2)ncn1 | i
Cc1cn2c3c(=O)n(CC(N)=O)c(=O)n(C)c3nc2n1-c1ccc(Br)cc1 | i
O=C(Nc1ccc2c(c1)OCCO2)c1nnn(-c2ccccc2Cl)c1-c1ccccn1 | +
O=C(Cc1ccc(Cl)cc1)Nc1ccc(S(=O)(=O)N2CCN(c3cnccn3)CC2)cc1 | i
COc1ccccc1CN1CCc2nc(SCc3nc(-c4cccc(C)c4)oc3C)[nH]c(=O)c2C1 | i

More results follow:
SMILES | GIRK2 act
Cc1cc(CNC(=O)COc2ccc(C(C)C)cc2)c(C)o1 | i
Cc1cc(F)ccc1NC(=O)c1c(O)c2cccnc2n(-c2ccccc2)c1=O | i
COc1ccc(CNC(=O)N2CCN(c3nc4c(C)ccc(C)c4s3)CC2)cc1OC | i
O=C(c1cn(-c2cc(N3CCSCC3)ncn2)cn1)N1CCCc2ccccc21 | i
Cc1ccc(-n2ncc3c(C)nnc(SCC(=O)N4CCC(C)CC4)c32)cc1C | i
COc1ccccc1-c1noc(Cn2c(=O)n(-c3ccc(C)c(C)c3)c(=O)c3ccccc32)n1 | i
Cc1ccc(NC(=O)Cn2ncc(SCC(=O)NC3CC3)c(Cl)c2=O)c(C)c1 | i
COc1cc(C(=O)N2CCN(c3ccccc3Cl)CC2)cc(OC)c1OC | i
CCOc1ccc2ncc(C#N)c(N3CCC(C(=O)NCc4ccc(Cl)cc4)CC3)c2c1 | i
CCOc1ccc(-n2c(SCC(=O)Nc3ccc(CC)cc3)nc3ncccc3c2=O)cc1 | i
CCN(c1ccsc1C(=O)N1CCCC(C)C1)S(=O)(=O)c1ccccc1 (configuration not stated) | i
CCc1ccc(S(=O)(=O)N2CCC(c3nnc(CC)s3)CC2)cc1 | i
O=c1nc2n(c3ccccc13)CC/C2=C/c1cccc(Cl)c1 | i
O=C(CN1CCN(CC(O)c2ccco2)CC1)N1CCCC1 (configuration not stated) | i
COc1ccccc1NC(=O)Cc1nnc2cc(-c3nc(C4CC4)no3)ccn12 | i
Cc1cc(=O)[nH]c(-n2nc(C)c(CCC(=O)Nc3ccc(F)c(F)c3F)c2C)n1 | i
CCOC(=O)c1sc2c(c1C)c(=O)nc1n2Cc2ccccc2-1 | i
COc1ccc(-c2noc(Cn3nc(-c4ccccc4)ccc3=O)n2)cc1OC | i
Cc1cccc(-c2noc(C3CCN(CC(=O)Nc4ccc(F)cc4F)CC3)n2)c1 | i
NC(=O)CN1CCC(Cn2cnc3ccccc32)CC1 | i
CCOC(=O)N1CCN(CC(O)COc2ccc(C(C)(C)C)cc2)CC1 (configuration not stated) | i
COc1ccc(NC(=O)CCc2csc(NC(=O)NC3CCCCC3)n2)c(OC)c1 | i
COc1ccc(Nc2ncc(-c3ccccc3)o2)cc1OC | i
Cc1ccc(S(=O)(=O)N(C)CC(=O)Nc2ccc(Br)cc2)cc1 | i
COc1ccc(C2NC(=O)NC(C)=C2C(=O)OC(C)C)cc1Br (configuration not stated) | i

Additional entries:
SMILES | GIRK2 act
Cn1c(SCCCO)nc2c1c(=O)n(Cc1ccc(Cl)cc1)c(=O)n2C | i
Cn1cc(-c2cccs2)nc1CCNS(=O)(=O)Cc1cc(F)ccc1F | i
Cc1nc(-n2nc(C3CC3)cc2NC(=O)c2cc(C3CC3)on2)[nH]c(=O)c1C | i
Cc1cccc(-n2c(-c3ccccc3)cn3c4c(=O)n(CC(N)=O)c(=O)n(C)c4nc23)c1 | i
COc1ccc(CCC(=O)NCCCOc2cccc3cccnc23)cc1 | i
COc1ccccc1Oc1cnc(N)nc1-c1ccc(OCc2ccccc2)cc1O | i
CCC(C(=O)N1CCC(c2nnc(-c3ccco3)s2)CC1)c1ccccc1 (configuration not stated) | i
CCc1ccc(-n2ncc3c(=O)n(Cc4nc(-c5cccc(C)c5)no4)cnc32)cc1 | i
O=C(CCc1nnc2n(Cc3ccc(Cl)cc3)c(=O)c3ccccc3n12)NCc1ccc(F)cc1 | i
COC1(CNC(=O)C(=O)Nc2cc3c4c(c2)CC(=O)N4CCC3)CCSC1 (configuration not stated) | i
O=C(c1cccs1)N1CCC(Oc2ccccn2)CC1 | i
Cc1ccc(Cl)cc1NC(=O)CSc1nccnc1N1CCN(c2ccccc2)CC1 | i
CCC(=O)N=C1SC2CS(=O)(=O)CC2N1c1ccc(OC(F)(F)F)cc1 (configuration not stated) | i
Cc1ccccc1Oc1nccn2c(=O)n(CC(=O)Nc3cc(F)ccc3F)nc12 | i
O=c1c2ccccc2n(Cc2nc(-c3ccccc3Cl)no2)c(=O)n1Cc1ccco1 | i
CC(Oc1ccccc1)C(=O)NCC#CCN(C)Cc1ccccc1 (configuration not stated) | i
COc1ccc(-c2noc(C3CC(=O)N(c4ccc5c(c4)OCCO5)C3)n2)c(OC)c1 (configuration not stated) | i
COc1ccc(C2CCCN2CCNC(C)=O)cc1 (configuration not stated) | i
Cc1nccn1-c1ccc(=O)n(CCNS(=O)(=O)c2ccc(C(F)(F)F)cc2)n1 | i
CC(=O)O[C@]1(C(C)=O)CC[C@H]2[C@@H]3C=C(C)C4=CC(=O)CC[C@]4(C)[C@H]3CC[C@@]21C | i
CCOc1cccc2sc(N3CCN(C(=O)c4ccccn4)CC3)nc12 | i
COc1ccc(-c2noc(-c3ccc(=O)n(CC(=O)NCC4CCCO4)c3)n2)cc1 (configuration not stated) | i
CC(=O)Nc1c(-c2ccccn2)nsc1C(=O)N1CCc2ccccc2C1 | i
COC(=O)c1sccc1S(=O)(=O)Nc1ccc2c(c1)CC(=O)N2C | i
Cc1cc(C)c(NC(=O)Cn2c(=O)cnc3cc(S(=O)(=O)N4CCCCC4)ccc32)c(C)c1 | i

More structures:
SMILES | GIRK2 act
COCCOCC1CCN(C(=O)Nc2ccc3c(c2)OCO3)CC1 | i
COCC1CCCN(Cc2ccc(Br)cc2)C1 (configuration not stated) | i
O=C(NCCCN1CCN(c2ccccc2)CC1)C(=O)Nc1cccnc1 | i
Cc1ccc(Oc2nccn3c(=O)n(CC(=O)Nc4cccc(Cl)c4)nc23)cc1 | i
Cc1ccccc1-c1nc2oc3ccccc3c(=O)c2c(=O)n1Cc1ccco1 | i
N#Cc1c(SCC(N)=O)nc2c(c1C(F)(F)F)CCCC2 | i
Cc1cc(F)ccc1NC(=O)c1n[nH]nc1Nc1cccc(Cl)c1 | i
O=C(CSCc1ccccc1)N1CCN(S(=O)(=O)C2CC2)CC1 | i
COc1cc(C2c3c(oc4ccccc4c3=O)C(=O)N2C)cc(OC)c1OC (configuration not stated) | i
COC(=O)C12CC3CC(CC(NC(=O)c4csc(-c5ccccc5)n4)(C3)C1)C2 | i
Cn1nc(-c2ccccc2)cc1C(=O)N1CCCC(c2nnc(-c3cccs3)o2)C1 (configuration not stated) | i
COc1ccc(-c2noc(-c3ccc(=O)n(CC(=O)Nc4ccc(OC)cc4OC)c3)n2)cc1 | i
COc1ccccc1OCC(=O)NCC(C)(O)c1ccco1 (configuration not stated) | i
CC(O)(CNC(=O)Nc1ccc(C(F)(F)F)cc1)c1ccco1 (configuration not stated) | i
Cc1ccc(S(=O)(=O)N(C)c2cc(S(=O)(=O)NCCCC(=O)O)c(C)cc2C)cc1 | i
O=C(NCCn1ncccc1=O)C1CC(=O)N(c2cccc(Br)c2)C1 (configuration not stated) | i
O=C(NCc1cnn2ccccc12)c1ccc2c(c1)OCO2 | i
CCCS(=O)(=O)N1CCc2ccc(NC(=O)c3cccnc3SC)cc2C1 | i
Cc1cccc(Nc2c(C(=O)N3CCSCC3)cnc3nc(C)ccc23)c1 | i
CC(C)CC(CO)NC(=O)CC(O)CC(=O)Cc1ccccc1 (configuration not stated) | i
O=C(Cn1c(=O)oc2ccccc21)Nc1cccc(-c2ccn[nH]2)c1 | i
COC(=O)Cn1c(=O)c2c(nc3n(-c4cc(OC)ccc4OC)c(C)c(C)n23)n(C)c1=O | i
Cc1nc(-c2nnc(NC(=O)/C=C/c3ccccc3Cl)o2)cs1 | i
O=C(NCc1cccc2ccccc12)N1CCC(CSc2ccccn2)CC1 | i
O=C(OC1CN(c2nc3c(F)cc(F)cc3s2)C1)c1cnc2ccccc2n1 | i

(further entries)
SMILES | GIRK2 act
Cc1ccc(-c2csc3c(=O)[nH]c(N4CCC5(CC4)OCCO5)nc23)cc1 | i
CC(C)C(=O)OC1c2cc3ccc(=O)oc3cc2OC1C(C)(C)OC(=O)C(C)C (configuration not stated) | i
CC(O)(CNC(=O)c1ccccc1F)c1ccco1 (configuration not stated) | i
O=C(NCc1ccco1)c1cccn1Cc1nc(-c2ccccc2)no1 | i
Cc1c(C(=O)N2CCCSCC2CN2CCCCC2)cnn1-c1ccccc1 (configuration not stated) | i
N#Cc1ccc(C(=O)Nc2sc3c(c2-c2nc4ccccc4s2)CCCC3)cc1 | i
CCCn1cc(S(=O)(=O)c2cc(C)ccc2C)c(=O)c2cc(F)c(N3CCN(CC)CC3)cc21 | i
COCCN(Cc1ccoc1)C(=O)c1cc(OC)ccc1Br | i
O=C(c1ccc(-n2cccc2)cc1)N1CCC(c2nnc(-c3ccco3)o2)CC1 | i
Cc1cccc(NC(=O)CCn2cnc3c([nH]c4ccc(C)cc43)c2=O)c1 | i
CCCCC[C@H](O)/C=C/[C@H]1C(=O)C[C@H](O)[C@@H]1CCCCCCC(=O)O | i
COc1ccc(-c2noc(Cn3nc(-c4ccc(C(C)C)cc4)ccc3=O)n2)cc1OC | i
Cc1ccc(-c2nc(S(=O)(=O)c3ccccc3)c(N3CCN(C)CC3)o2)cc1 | i
CCc1ccc(NC(=O)CSc2nc3c(sc(=S)n3-c3ccccc3C)c(=O)[nH]2)cc1 | i
CNc1nc2c(c(=O)[nH]c(=O)n2C)n1CC(O)COc1cccc(C)c1 (configuration not stated) | i
COCCn1cnc2c(-c3ccccc3)cn(CC(=O)NCc3ccccc3)c2c1=O | i
Cc1ccc(F)cc1NC(=O)Cn1cccc(S(=O)(=O)N2CCCC2)c1=O | i
O=C(NC1CCCC1)N1C2CCC1COC2 | i
O=C(c1cnc2ccccc2n1)N(Cc1ccsc1)CC(F)(F)F | i
COc1ccc(-c2nc(=S)c3c([nH]2)Oc2c(cccc2OC)C3)cc1Br | i
Cc1sc2nc(SCC(=O)NCC3CCCO3)n(Cc3ccco3)c(=O)c2c1C (configuration not stated) | i
COc1ccc(CNC(=O)N2CCN(Cc3nc4ccccc4n3C)CC2)cc1 | i
COc1ccc(-c2noc(C3CCN(CC(=O)Nc4ccccc4OC)CC3)n2)cc1 | i
O=C(CC1CCCC1)Nc1cc(-n2ccc3ccccc32)ncn1 | i
O=C(CN1CCN(Cc2nc3ccccc3[nH]2)CC1)NCc1ccc2c(c1)OCO2 | i
COc1cc(OC)c(NC(=O)CCCCCn2nnc3ccccc3c2=O)cc1Cl | i

GIRK2 act, what is marked active above.
SMILES | GIRK2 act
O=C(Nc1ccc2c(c1)OCCO2)c1nnn(-c2ccccc2Cl)c1-c1ccccn1 | +
